Vaccinia inh: blocks a specific stage of Vaccinia orthopoxvirus infection, primary screen, cell-based, single point | Vaccinia-infected cells, mCherry/Venus stage reporter fluorescence; stronger effect = lower value; some inactives read as strong as hits | activity change (mCherry), % (concentration not given with the values) | 89,000 tested, 0.01% active | AID 1053133, 2014;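 active = mCherry past -33% and 40 or more points under the early reporter, replicates agreeing; inconclusive = past -33% without that gap or agreement; tested in A549 cells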;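 also: scaled between vehicle wells and reference inhibitor wells; 23 nL library stock went into each well; one replicate is shown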
Vaccinia inh Venus: second read-out of Vaccinia inh, no call of its own (marks repeat the call); activity change (Venus), %; measured here: Venus reporter, other viral stage;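 negative = less Venus signal; first of two replicates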
The depositor's hits bear a star; ? = inconclusive; · = no result given. Only part of the results is shown, so the mix of outcomes need not match the whole.

SMILES	Vaccinia inh	Vaccinia inh Venus
O=C(C[C@H]1C=C[C@@H](NC(=O)Nc2ccccc2F)[C@H](CO)O1)NCc1ccc(F)cc1	9	0
Cc1noc(C)c1NC(=O)Nc1ccc2c(c1)C(=O)N([C@@H](C)CO)C[C@H](C)[C@@H](CN(C)C(=O)Nc1ccccc1)OCCCC[C@H](C)O2	23	15
O=C(c1cccc(F)c1)N1C[C@@H]2[C@H](c3ccccc31)[C@@H](CO)N2C(=O)c1cccc(F)c1	2	3
CS(=O)(=O)Nc1ccc2c(c1)[C@H]1C[C@@H](CC(=O)NCc3ccccn3)O[C@H](CO)[C@H]1O2	14	14
C[C@@H]1CN([C@@H](C)CO)C(=O)c2cccc(N(C)C)c2O[C@@H]1CN(C)Cc1ccc2c(c1)OCO2	11	6
OC[C@H]1CC[C@@H]2O[C@H](CCc3ccc(C#CCc4ccccc4)cc3)[C@H](n3cc(-c4ccccc4)nn3)C[C@@H]2O1	-21	-17
Cc1noc(C)c1NC(=O)N(C)C[C@@H]1Oc2c(NC(=O)Nc3ccc(F)cc3)cccc2C(=O)N([C@H](C)CO)C[C@H]1C	0	1
C[C@@H]1CN([C@@H](C)CO)C(=O)c2cc(NS(=O)(=O)c3ccccc3)ccc2O[C@@H](C)CCCCO[C@H]1CN(C)C(=O)Nc1ccc(C(F)(F)F)cc1	-5	-16
COc1ccc2c3c(n(C)c2c1)[C@H](CO)N(C(=O)c1cccnc1)CC31CN(S(C)(=O)=O)C1	-1	-23
C[C@@H]1CN([C@H](C)CO)C(=O)c2cc(C#CC3CC3)cnc2O[C@@H]1CN(C)Cc1ccccn1	26	17
Cc1cccc(S(=O)(=O)N2CC[C@@H]3[C@H](CO)N(C)c4ccc(-c5cccc(C#N)c5)cc4[C@@H]32)c1	?	·
COc1ccc(CN(C)C[C@H]2OCCCC[C@H](C)Oc3ccc(NC(=O)Nc4ccc(OC)cc4)cc3C(=O)N([C@@H](C)CO)C[C@H]2C)cc1	-31	-41
O=C(c1cnccn1)N1CC(=O)N2[C@H](CO)[C@@H](c3ccc(/C=C/c4ccccc4)cc3)[C@H]2C1	-22	-9
O=C(C[C@H]1CC[C@H]2[C@@H](COC[C@H](O)CN2C(=O)Nc2cccc(F)c2)O1)NCc1ccccc1Cl	-27	-20
CC(C)CC#Cc1cnc2c(c1)C(=O)N([C@H](C)CO)C[C@H](C)[C@H](CN(C)Cc1ccccc1)O2	-13	-13
C/C=C/c1cnc2c(c1)C(=O)N([C@@H](C)CO)C[C@H](C)[C@H](CN(C)C(=O)c1cccc(F)c1)O2	-2	0
COc1ccc(S(=O)(=O)Nc2ccc3c(c2)CC(=O)N([C@H](C)CO)C[C@H](C)[C@H](CN(C)C(=O)NC(C)C)O3)cc1	14	7
C[C@H](CO)N1C[C@H](C)[C@H](CN(C)S(=O)(=O)c2ccccc2)Oc2ccc(NC(=O)C3CCCCC3)cc2CC1=O	5	4
O=C(C[C@@H]1C[C@@H]2c3cc(NC(=O)C4CCOCC4)ccc3O[C@@H]2[C@H](CO)O1)NC1CCCC1	1	0
COc1cccc(S(=O)(=O)N2CCCCN3[C@@H](CO)[C@H](c4ccc(-c5ccccc5)cc4)[C@@H]3C2)c1	-25	-20
COc1ccc(NC(=O)N(C)C[C@H]2Oc3c(NS(=O)(=O)c4cn(C)cn4)cccc3C(=O)N([C@@H](C)CO)C[C@H]2C)cc1	12	14
C[C@@H]1CN([C@@H](C)CO)C(=O)c2cccc(NS(=O)(=O)c3ccccc3)c2O[C@@H]1CN(C)S(=O)(=O)c1ccccc1	15	14
O=C(C[C@@H]1CC[C@@H](NC(=O)Nc2ccc(F)cc2)[C@@H](CO)O1)NCc1cccc(F)c1	0	-3
COc1cccc(S(=O)(=O)N2C[C@@H](O)COC[C@@H]3O[C@@H](CC(=O)Nc4ccccc4)CC[C@H]32)c1	-5	-5
Cc1ccc(S(=O)(=O)N(C)C[C@H]2Oc3c(NC(=O)c4ccc(-c5nccs5)cc4)cccc3C(=O)N([C@@H](C)CO)C[C@H]2C)cc1	-11	-7

Gathered by group: those above with a halogen
SMILES	Vaccinia inh	Vaccinia inh Venus
O=C(C[C@H]1C=C[C@@H](NC(=O)Nc2ccccc2F)[C@H](CO)O1)NCc1ccc(F)cc1	9	0
O=C(c1cccc(F)c1)N1C[C@@H]2[C@H](c3ccccc31)[C@@H](CO)N2C(=O)c1cccc(F)c1	2	3
Cc1noc(C)c1NC(=O)N(C)C[C@@H]1Oc2c(NC(=O)Nc3ccc(F)cc3)cccc2C(=O)N([C@H](C)CO)C[C@H]1C	0	1
C[C@@H]1CN([C@@H](C)CO)C(=O)c2cc(NS(=O)(=O)c3ccccc3)ccc2O[C@@H](C)CCCCO[C@H]1CN(C)C(=O)Nc1ccc(C(F)(F)F)cc1	-5	-16
O=C(C[C@H]1CC[C@H]2[C@@H](COC[C@H](O)CN2C(=O)Nc2cccc(F)c2)O1)NCc1ccccc1Cl	-27	-20
C/C=C/c1cnc2c(c1)C(=O)N([C@@H](C)CO)C[C@H](C)[C@H](CN(C)C(=O)c1cccc(F)c1)O2	-2	0
O=C(C[C@@H]1CC[C@@H](NC(=O)Nc2ccc(F)cc2)[C@@H](CO)O1)NCc1cccc(F)c1	0	-3

(list continues)
SMILES	Vaccinia inh	Vaccinia inh Venus
N#C[C@H]1[C@@H](c2ccc(-c3ccncc3)cc2)[C@@H](CO)N1C(=O)C1CCCC1	-1	-1
C[C@@H]1CN([C@H](C)CO)C(=O)c2cccc(NC(=O)Nc3cccc4ccccc34)c2O[C@@H]1CN(C)C(=O)Nc1ccc(F)cc1	-27	-11
Cc1noc(C)c1NC(=O)N(C)C[C@@H]1OCCCC[C@@H](C)Oc2ccc(NC(=O)Nc3ccc(F)cc3)cc2C(=O)N([C@@H](C)CO)C[C@H]1C	7	3
CO[C@@H]1CN(C)C(=O)c2cc(NC(=O)c3ccccc3F)ccc2OC[C@@H](C)N(CC2CCOCC2)C[C@@H]1C	11	5
C[C@H]1CN([C@@H](C)CO)C(=O)c2cccc(NC(=O)CCCCCC(=O)Nc3ccccc3N)c2O[C@H]1CN(C)Cc1ccc(-c2ccccc2)cc1	?	·
CCNC(=O)C[C@@H]1CC[C@H]2[C@H](COc3ccc(NS(C)(=O)=O)cc3C(=O)N2C)O1	13	11
CCCN1C[C@@H](C)[C@@H](OC)CN(C)C(=O)c2cc(NC(=O)c3cccc(F)c3)ccc2OC[C@H]1C	10	2
C[C@@H]1CN([C@H](C)CO)C(=O)CCCn2cc(nn2)CO[C@H]1CN(C)Cc1cccc2c1OCCCO2	3	-1
CC(C)NC(=O)NCC[C@H]1CC[C@@H](NS(=O)(=O)c2ccc(-c3ccccc3)cc2)[C@H](CO)O1	-12	-5
CCCC#Cc1ccc([C@H]2[C@@H](CO)N3C(=O)CN(C(=O)Nc4cccc(F)c4)C[C@H]23)cc1	-18	-2
CC(C)NC(=O)N(C)C[C@H]1Oc2cc(C#Cc3ccc(F)cc3)ccc2S(=O)(=O)N([C@@H](C)CO)C[C@@H]1C	?	·
COCc1cn(CC[C@@H]2CC[C@@H](NC(=O)Nc3ccc(Cl)cc3)[C@@H](CO)O2)nn1	5	3
O=C(C[C@H]1CC[C@@H](NC(=O)C2CCC2)[C@H](CO)O1)NCc1ccncc1	-2	-3
N#C[C@H]1[C@@H](c2ccccc2)[C@H](CO)N1C(=O)c1ccc2c(c1)OCO2	4	5
CC(=O)NC[C@H]1[C@@H](c2ccc(-c3cccc(F)c3)cc2)[C@@H](CO)N1C(C)=O	2	5
C[C@@H]1CCCCO[C@@H](CN(C)C(=O)c2ccccc2)[C@H](C)CN([C@@H](C)CO)C(=O)c2cc(NC(=O)CCC(F)(F)F)ccc2O1	6	-3
O=C(C[C@@H]1CC[C@@H]2[C@H](COC[C@H](O)CN2S(=O)(=O)c2ccc(Cl)cc2)O1)NCCN1CCCCC1	1	6
CC(C)CC#Cc1ccc([C@H]2[C@@H](CO)N3C(=O)CN(C(=O)Nc4cc(F)ccc4F)C[C@H]23)cc1	-9	-4
CC(C)C#Cc1ccc2c(c1)O[C@@H](CN(C)C(=O)c1ccccn1)[C@@H](C)CN([C@H](C)CO)S2(=O)=O	-4	-5
CO[C@@H]1CN(C)C(=O)c2cc(NS(C)(=O)=O)ccc2OC[C@H](C)N(C(=O)C2CC2)C[C@@H]1C	24	12
Cc1ccc(-c2ccc([C@@H]3[C@@H](CO)N4CCCCN(S(=O)(=O)c5cccc(C)c5)C[C@H]34)cc2)cc1	?	·
C[C@H]1CCCCO[C@@H](CN(C)Cc2ccc3c(c2)OCO3)[C@@H](C)CN([C@@H](C)CO)C(=O)c2cc(NC(=O)c3ccccc3)ccc2O1	?	·
CN(C)C(=O)c1cccc(-c2ccc([C@H]3[C@@H](C#N)N(C(=O)C4CCCC4)[C@H]3CO)cc2)c1	-27	-23
CC(C)CC#Cc1ccc([C@H]2[C@@H](CO)N3C(=O)CN(C(=O)Nc4ccc(F)cc4)C[C@@H]23)cc1	?	·
COc1ccccc1NC(=O)N1CC(=O)N2[C@H](CO)[C@H](c3ccc(C#Cc4ccccc4)cc3)[C@H]2C1	-15	-11

Full records, quoted from the list. Order of screens: Vaccinia inh | Vaccinia inh Venus
O=C(C[C@@H]1C[C@@H]2c3cc(NC(=O)C4CCOCC4)ccc3O[C@@H]2[C@H](CO)O1)NC1CCCC1 across the screens: 1 | 0
COc1ccc(S(=O)(=O)Nc2ccc3c(c2)CC(=O)N([C@H](C)CO)C[C@H](C)[C@H](CN(C)C(=O)NC(C)C)O3)cc1 across the screens: 14 | 7
OC[C@H]1CC[C@@H]2O[C@H](CCc3ccc(C#CCc4ccccc4)cc3)[C@H](n3cc(-c4ccccc4)nn3)C[C@@H]2O1 across the screens: -21 | -17
COc1cccc(S(=O)(=O)N2CCCCN3[C@@H](CO)[C@H](c4ccc(-c5ccccc5)cc4)[C@@H]3C2)c1 across the screens: -25 | -20
COc1ccc2c3c(n(C)c2c1)[C@H](CO)N(C(=O)c1cccnc1)CC31CN(S(C)(=O)=O)C1 across the screens: -1 | -23

Next section:
SMILES	Vaccinia inh	Vaccinia inh Venus
CCCNC(=O)[C@H]1[C@H](CO)[C@H]2Cn3c(ccc(-c4ccc(F)cc4)c3=O)[C@H]2N1CCC	13	10
CCCN1[C@@H]2c3ccc(-c4cccc(F)c4)c(=O)n3C[C@@H]2[C@@H](CO)[C@@H]1C(=O)N(C)C	3	0
COc1cccc(-c2cnc3c(c2)C(=O)N([C@@H](C)CO)C[C@H](C)[C@H](CN(C)C(=O)CC2CC2)O3)c1	5	1
O=C(Nc1cccc(Cl)c1)N[C@@H]1CC[C@H](CCNC(=O)C2CCCC2)O[C@@H]1CO	-24	-3
C[C@@H]1CN([C@@H](C)CO)C(=O)c2cc(NC(=O)CCC(F)(F)F)ccc2O[C@@H]1CN(C)Cc1ccccc1	-1	6
CO[C@@H]1CN(C)C(=O)c2ccc(NC(=O)c3ccccc3)cc2OC[C@H](C)NC[C@H]1C	14	3
CN(C)CCCNC(=O)C[C@H]1C=C[C@@H](NC(=O)Cc2cccnc2)[C@H](CO)O1	-9	-17
C[C@H](CO)N1C[C@H](C)[C@H](CN(C)Cc2ccc3c(c2)OCO3)Oc2ccc(NC(=O)c3ccncc3)cc2CC1=O	-1	-5
C[C@H]1CN([C@@H](C)CO)C(=O)c2cccc(NC(=O)CCCCCC(=O)Nc3ccccc3N)c2O[C@@H]1CN(C)Cc1ccncc1	-6	-9
O=C(NCc1ccccc1)[C@@H]1[C@@H](CO)[C@@H]2Cn3c(cccc3=O)[C@H]1N2	5	-7
C[C@@H]1CN([C@@H](C)CO)S(=O)(=O)c2ccc(Br)cc2O[C@H]1CN(C)Cc1cncnc1	18	-1
CCC(=O)N1[C@@H](CO)[C@@H](c2ccccc2)C12CN(Cc1cccnc1)C2	13	10
C[C@@H]1CN([C@@H](C)CO)C(=O)Cc2cc(NC(=O)C3CCCCC3)ccc2O[C@H]1CN(C)S(=O)(=O)c1cccs1	2	-6
CCN(C[C@@H]1[C@@H](c2ccc(-c3ccccc3)cc2)[C@H](CO)N1C(C)=O)C(C)=O	10	5
C[C@H]1CN([C@@H](C)CO)C(=O)Cc2cc(NC(=O)CCCCCC(=O)Nc3ccccc3N)ccc2O[C@@H]1CN(C)C(=O)Nc1ccc(F)cc1	1	3
COc1ccc(NC(=O)Nc2ccc3c(c2)CC(=O)N([C@@H](C)CO)C[C@@H](C)[C@@H](CN(C)S(=O)(=O)c2ccc(OC)cc2)O3)cc1	-7	-4
C[C@@H]1CN([C@@H](C)CO)C(=O)Cc2cc(NC(=O)Cn3cnnn3)ccc2O[C@@H]1CN(C)C(=O)Nc1ccc(C(F)(F)F)cc1	6	-2
C[C@H](CO)N1C[C@H](C)[C@H](CN(C)C(=O)C2CCC2)Oc2ncc(C#CC(C)(C)O)cc2C1=O	5	3
COCC(=O)N1CCC2(CC1)CN(S(C)(=O)=O)[C@H](CO)c1c2c2ccc(OC)cc2n1C	19	15
CO[C@@H]1CN(C)C(=O)c2ccc(NC(=O)CC(F)(F)F)cc2OC[C@H](C)N(C(C)=O)C[C@H]1C	7	3
C[C@H](CO)N1C[C@H](C)[C@H](CN(C)S(=O)(=O)c2cn(C)cn2)Oc2c(NS(=O)(=O)c3cn(C)cn3)cccc2C1=O	17	15
O=C(NCCc1ccccc1)[C@@H]1[C@@H](CO)[C@@H]2Cn3c(cccc3=O)[C@H]1N2C(=O)C1CCC1	20	17
O=C(Nc1ccccc1)N[C@@H]1CC[C@H](CCNS(=O)(=O)c2cccc(F)c2)O[C@@H]1CO	2	4
C[C@H]1CN([C@@H](C)CO)C(=O)Cc2cc(NC(=O)Cc3cn(C)c4ccccc34)ccc2O[C@@H]1CN(C)C	1	0
CC(C)CC#Cc1ccc([C@@H]2[C@H]3CN(C(=O)CN4CCOCC4)CC(=O)N3[C@H]2CO)cc1	24	20
C[C@H]1CN([C@@H](C)CO)S(=O)(=O)c2ccc(C#CC3CCCC3)cc2O[C@H]1CN(C)C(=O)Cc1ccncc1	?	·
O=C(C[C@H]1C=C[C@@H](NC(=O)c2ccncc2)[C@@H](CO)O1)Nc1ccc(-c2ccccc2)cc1	-13	-8
CCC(=O)Nc1ccc2c(c1)C(=O)N(C)C[C@@H](OC)[C@H](C)CN(CC1CCCCC1)[C@@H](C)CO2	-29	-14
